Screening results from PubChem BioAssay.
Cruzain inh noDet – qHTS Assay for Promiscuous and Specific Inhibitors of Cruzain (without detergent); purified cruzain, Z-FR-AMC fluorescence, no detergent; Potency, µM, for inactives: max response, negative = inhibition, usual class: inhibitors; 2.3% of 200,000 active; AID 1476, 2009;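 also: plate controls were enzyme without inhibitor for no effect and buffer without enzyme for full effect; nearly all actives have a fitted effect of over 40% in size; top concentration of the series not given in the record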
Target sequence (P25779 123-467 limits assumed): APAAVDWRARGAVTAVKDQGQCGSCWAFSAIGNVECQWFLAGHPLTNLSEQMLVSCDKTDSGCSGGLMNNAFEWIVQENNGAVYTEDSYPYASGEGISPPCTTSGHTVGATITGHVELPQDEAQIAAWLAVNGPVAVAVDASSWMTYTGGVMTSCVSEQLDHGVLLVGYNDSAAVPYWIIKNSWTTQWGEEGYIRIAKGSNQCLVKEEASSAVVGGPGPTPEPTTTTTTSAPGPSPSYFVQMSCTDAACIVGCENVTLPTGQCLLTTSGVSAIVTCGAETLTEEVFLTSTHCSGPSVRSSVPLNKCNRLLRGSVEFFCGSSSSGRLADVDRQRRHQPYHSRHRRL
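Purified cruzain at 1.5 nM, pre-incubated 15 min with compound at room temperature in 100 mM sodium acetate pH 5.5, 5 mM DTT, 0.00005% Triton X-100. Reaction started with 2 uM Z-FR-AMC; AMC fluorescence increase over 60 s gives rate.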
SARS PLP yeast – qHTS of Yeast-based Assay for SARS-CoV PLP | 0.19% of 330,000 active | S. cerevisiae expressing SARS-CoV PLpro, growth rescue; control for the full effect not named in the record | Potency, µM (titrated, usually from 32.9 µM), inactives show at the top dose activity, positive = growth rescue | AID 485353, 2010; active means well fitted rising curve with a large enough effect; inconclusive means small, poorly fitted or top-dose-only effect; inactive means no such curve, though single readings can be large or run the other way; also: 0% is about no effect; nearly all actives have a fitted effect of over 55% in size; growth read by luminescence after 48 h
NS1 inh – qHTS Assay for Inhibitors of Influenza NS1 Protein Function; Potency, µM (series often up to 46.1 µM), for inactives: top-dose activity, positive = more growth; 0.4% of 270,000 active; S. cerevisiae slowed by influenza A NS1, growth recovery by OD600; AID 2326, 2010; active means well fitted rising curve with a large enough effect; inconclusive means small, poorly fitted or top-dose-only effect; inactive means no such curve, though single readings can be large or run the other way; also: nearly all actives have a fitted effect of over 50% in size
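S. cerevisiae expressing influenza A NS1, grown in glucose, washed, then diluted 1:100 into pH 6.0 -URA galactose medium with 23 nl compound. Growth recovery read as OD600; NS1-free strain serves as control.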
MARV entry inh – qHTS for inhibitors of binding or entry into cells for Marburg Virus | Marburg virus pseudotyped entry inhibition, cell reporter; control for the full effect not named in the record; about a third of the inactives were read at about 46 µM | Potency, µM (series often up to 37.8 µM), for the others: at the top dose activity change, negative = inhibition, actives largely listed as inhibitors | 1.8% of 300,000 active | AID 540276, 2011; active = well fitted inhibition curve with a large enough effect; inconclusive = small, poorly fitted or top-dose-only effect, or effect the other way; inactive = flat fitted curve, though single readings scatter; tested in HEK293 cells; about a fifth of its hits are not listed in these tables; also: % is scaled to controls: 0 for no effect and ±100 for the full control effect; luciferase read-out
RE007 growth inh – qHTS Assay for Inhibitors of the HIV-1 protein Vpr; S. pombe RE007 Vpr strain, BacTiter-Glo ATP luminescence, 24 h; control for the full effect not named in the record; Potency, µM (titrated, usually from 92.2 µM), for the others: at the top dose activity change, negative = less growth; 0.21% of 360,000 active; active = well fitted falling curve with a large enough effect; inconclusive = small, poorly fitted or top-dose-only effect; inactive = no such curve, though single readings can be large or run the other way;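 also: % is scaled to controls: 0 for no effect and ±100 for the full control effect; nearly all actives have a fitted effect of over 50% in size; the assay follows cell death caused by Vpr and the record does not say whether a fall means rescue or toxicity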
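Fission yeast strain RE007, carrying one chromosomally integrated HIV-1 vpr copy, was seeded at OD 0.01 in PMG+AL medium with 23 nL pinned compound. After 24 h at 30 °C and 99% humidity, viability was read by BacTiter-Glo luminescence.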
Lassa entry inh – qHTS for Inhibitors of binding or entry into cells for Lassa Virus; Lassa virus pseudotype entry inhibition, cell reporter; control for the full effect not named in the record; Potency, µM (series often up to 37.9 µM), without a hit: at the highest dose activity change, negative = inhibition, actives largely listed as inhibitors; 1.2% of 300,000 active; AID 540256, 2011; active means well fitted inhibition curve with a large enough effect; inconclusive means small, poorly fitted or top-dose-only effect, or effect the other way; inactive means flat fitted curve, though single readings scatter; tested in HEK293 cells; also: % is scaled to controls: 0 for no effect and ±100 for the full control effect; nearly all actives have a fitted effect of over 50% in size; luciferase read-out
StopGo reporter – High Throughput Screening for Foot and Mouth Disease Virus Antivirals; human cells with a luciferase reporter of 2A StopGo recoding; control for the full effect not named in the record; Potency, µM (titrated, usually from 57.9 µM), for the others: at the top dose signal change, negative = less light; 1.2% of 410,000 active; AID 1159524, 2015; active = well fitted falling curve with a large enough effect; inconclusive = small, poorly fitted or top-dose-only effect; inactive = no such curve, though single readings can be large or run the other way; tested in HEK293T cells; also: % is scaled to controls: 0 for no effect and ±100 for the full control effect; nearly all actives have a fitted effect of over 45% in size; luciferase light after 4 h
Cruzain inh Det – qHTS Assay for Promiscuous and Specific Inhibitors of Cruzain (with detergent) | Cruzipain (Trypanosoma cruzi), P25779 | 0.43% of 200,000 active | purified cruzain, Z-FR-AMC fluorescence, 0.01% Triton | Potency, µM, without a hit: max response, negative = inhibition, usual class: inhibitors | AID 1478, 2009;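 also: plate controls were neutral wells for no effect and buffer without enzyme for full effect; nearly all actives have a fitted effect of over 40% in size; top concentration of the series not given in the record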
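Steps: dispense cruzain (1.5 nM final) in acetate buffer pH 5.5 with DTT and 0.01% Triton X-100; pin-transfer compounds; incubate 15 min RT; add Z-FR-AMC (2 uM final); read fluorescence every 30 s, using the 60 s intensity change.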
Numbers without * were called inactive; ? = inconclusive; nt = no result given; & = joins results of further samples; [ ] = another dose, or the depositor's remark. Unless noted, calls follow the shape of the dose curve; as a rule, active = well fitted curve in the direction sought with a large enough effect; inconclusive = small, poorly fitted or top-dose-only effect, or another doubt; inactive = no such curve, though single readings can be large; an effect the other way counts as inactive or inconclusive. Potency is read from the fitted curve at half-maximal effect.

SMILES	Cruzain inh noDet	SARS PLP yeast	NS1 inh	MARV entry inh	RE007 growth inh	Lassa entry inh	StopGo reporter	Cruzain inh Det
CC(=O)c1ccc(OCC(O)CN2CCN(CCN3C(=O)c4cccc5cccc(c45)C3=O)CC2)cc1 (centres undefined)	-16.8%	8.8%	9.6%	?	3.4%	?	?	-13.7%
CCCCSc1nc(NCc2ccco2)c2c3c(sc2n1)COC(C)(C)C3	0.4%	-10.0%	14.3%	-5.0%	6.7%	-8.5%	-2.4%	-12.8%
O=C(O)CCC(CNS(=O)(=O)c1ccccc1)C(F)(F)F (centres undefined)	nt	1.8%	nt	-1.1%[46.1 µM]	-19.9%	8.8%	-8.4%	nt
N#Cc1ccc(-c2csc(NNC(=O)c3ccccc3)n2)cc1	?	-2.1%	11.8%	10µM*	208.5%	?	-12.6%	0.9%
Cc1ccc(S(=O)(=O)n2ccc3c(OCCOCCNCc4ccc(F)cc4)cccc32)cc1	nt	-0.6%	14.0%	?	-1.4%	?	?	nt
O=C(NCCNS(=O)(=O)c1ccccc1Cl)c1cc(OCC(F)(F)F)ccc1OCC(F)(F)F	6.2%	-5.0%	13.1%	-0.7%	4.2%	8.9%	25.7%	-1.1%
CC1(C)NC(=O)N(CCCCOc2ccc(Cl)cc2)C1=O	1.3%	4.4%	-12.5%	19.8%	3.6%	-2.0%	-6.6%	3.9%
O=C(NCc1ccncc1)c1cccc(Cn2cc(Br)cn2)c1	9.0%	3.5%	1.8%	-16.7%	-3.8%	-4.3%	?	2.6%
COCCn1c(SCC(=O)Nc2ccccc2OC)nc2ccccc2c1=O	nt	-3.8%	-27.3%	nt	13.3%	nt	-13.8%	nt
O=C(c1ccccc1Cl)N1CCC(n2cccc2)CC1	nt	0.1%	-1.1%	0.2%	9.6%	-3.4%	-5.4%	nt
CCc1c(O)cc2n(c1=O)-c1ccc(Cl)cc1C2(C)C	-2.1%	-43.0%	-34.4%	-24.8%	-6.7%	-5.5%	-10.4%	-5.2%
Cc1nnc(SCC(=O)Nc2cc(Cl)ccc2Cl)n1CC1CCCO1 (centres undefined)	nt	6.4%	27.6%	1.6%[46.1 µM]	-3.3%	-0.8%	-15.7%	nt
COc1cccc(N(C(=O)Cn2nnc(-c3ccc(C)o3)n2)C(C(=O)NC2CCCC2)c2ccncc2)c1 (centres undefined)	nt	2.1%	-2.0%	-22.2%	8.5%	-9.8%	-4.8%	nt
CCNC(=O)CC1SC(=Nc2ccc(C)cc2)N(CC)C1=O (centres undefined)	-4.6%	1.9%	7.8%	-2.2%	2.9%	0.4%	-10.9%	-1.4%
COc1cccc(OCc2cc(C(=O)N(C)CCOc3ccc(C)cc3)no2)c1	nt	-2.4%	-58.2%	nt	-14.1%	nt	0.0%	nt

The closing 2 entries of the section above lead into the next.
SMILES	Cruzain inh noDet	SARS PLP yeast	NS1 inh	MARV entry inh	RE007 growth inh	Lassa entry inh	StopGo reporter	Cruzain inh Det
CCNC(=O)CC1SC(=Nc2ccc(C)cc2)N(CC)C1=O (centres undefined)	-4.6%	1.9%	7.8%	-2.2%	2.9%	0.4%	-10.9%	-1.4%
COc1cccc(OCc2cc(C(=O)N(C)CCOc3ccc(C)cc3)no2)c1	nt	-2.4%	-58.2%	nt	-14.1%	nt	0.0%	nt
CCCN(CCC)CCNC(=O)C1CCCN(S(=O)(=O)c2ccc3c(c2)oc(=O)n3C)C1 (centres undefined)	5.9%	1.2%	-3.2%	-3.9%&-9.2%	10.2%	30.6%[14.3 µM]	17.6%	-2.3%
COCc1cc(C)nc2c1C(=O)NC(c1ccc(C)cc1)N2Cc1ccccc1 (centres undefined)	0.7%	nt	nt	nt	nt	8.1%[46.1 µM]	-6.8%	0.5%
CCn1cc(S(=O)(=O)CC(=O)Nc2ccc3c(c2)OCO3)c2ccccc21	nt	1.3%	0.5%	nt	3.3%	nt	52.3%[activator]	nt
O=c1c2cc3c(cc2n(Cc2cccc(F)c2)c(=O)n1Cc1nc(-c2ccccc2)no1)OCO3	-23.5%	nt	nt	nt	nt	4.7%[46.1 µM]	-15.6%	0.0%
COC(=O)C1=C(C)NC2=C(C(=O)c3ccccc32)C1c1ccc(-c2ccc(C(=O)O)cc2)o1 (centres undefined)	?	-5.7%	-47.1%	-17.6%	-13.1%	-21.0%	-23.3%	-17.9%
CCc1nccn1S(=O)(=O)c1cc(Br)ccc1Br	20.8%	nt	nt	-2.8%[46.1 µM]	nt	-0.5%[46.1 µM]	-7.4%	0.7%
O=C(NCCc1ccc(Cl)cc1)c1cc(-c2ccc(Cl)cc2)n[nH]1	?	nt	nt	nt	nt	3.3%[46.1 µM]	0.0%	-1.4%
CCOC(=O)C1CCCN(CC(=O)Nc2cc(C)cc(C)c2)C1 (centres undefined)	nt	0.4%	nt	10.7%	7.0%	-20.9%	-1.4%	nt
Cc1cccc(N(CC(=O)NC2CCCC2)C(=O)CNC(=O)c2ccco2)c1C	nt	0.1%	-6.0%	-7.7%[46.1 µM]	-11.3%	-12.7%[46.1 µM]	-11.3%	nt
CCOc1ccc(NCc2cccn2-c2nnc(N3CCC(C(=O)NCCc4ccc(OCC)c(OCC)c4)CC3)s2)cc1	?	nt	nt	?	nt	nt	?	-5.2%
O=C1CCCC(c2ccccc2)N1 (centres undefined)	-7.0%	-0.7%	-4.2%	5.5%	-22.4%	12.4%	-21.0%	0.8%
COC(=O)c1c(-c2ccccc2)csc1NC(=O)C1CC=CCC1C(=O)O (centres undefined)	nt	0.0%	nt	-5.4%[46.1 µM]	81.6%	-0.2%	37.8%[activator]	nt
CCOC(=O)c1sc2nc(CC(=O)OC)nc(NCc3ccco3)c2c1C	?	-5.3%	-34.6%	?	8.7%	-25.6%	?	-24.0%
CCN(CC)S(=O)(=O)c1cc(NS(=O)(=O)c2ccc(Cl)c(C(=O)O)c2)ccc1C	nt	2.9%	5.6%	nt	1.2%	nt	5.4%	nt
CN1CCN(/C(=N\O)c2nonc2N)CC1	2.5%	3.4%	?	-1.4%	8.8%	17.0%	5.8%	1.4%
NC(Cc1c[nH]c2ccc(OCc3ccccc3)cc12)C(=O)O (centres undefined)	nt	-2.2%	-0.8%	?	-13.5%	10.5%[46.1 µM]	-4.7%	nt
CCS(=O)(=O)N1CCC(C(=O)NCCc2ccc(C)cc2)CC1	10.3%	2.2%	-11.6%	?	-9.2%	1.1%	nt	12.2%
Cc1cccc(OCCCC(=O)O)c1	1.8%	-1.7%	-0.7%	?	2.5%	3.4%	-4.0%	2.2%
COC(=O)c1ccc(NC(=O)C2CCCN2S(=O)(=O)c2ccc(F)cc2)cc1 (centres undefined)	-4.8%	-3.2%	-7.6%	22.2%[46.1 µM]	5.2%	-6.1%	-16.6%	-3.5%
O=C(Nc1ccc(-c2cccc(F)c2)cc1)C1CCCN(Cc2ccccn2)C1 (centres undefined)	nt	13.7%	-19.0%	?	-23.6%	-20.2%	-9.6%	nt
COc1cc(Br)ccc1NC(=O)c1ccccc1-c1ccccc1C(=O)O	nt	nt	nt	-24.3%[46.1 µM]	4.5%	11.0%[46.1 µM]	-10.5%	nt
Cc1occc1-c1nnc(SCC(=O)Nc2ccc(F)cc2)n1C	nt	2.0%	5.8%	5.6%[46.1 µM]	-7.9%	21.2%	-2.6%	nt
COc1ccc(OCC(=O)Nc2ccccc2N2CCN(C)CC2)cc1	nt	-4.4%	-5.3%	-8.3%[46.1 µM]	-0.2%	nt	-20.5%	nt
COc1ccc(CCN(Cc2cccs2)S(=O)(=O)c2ccc(S(=O)(=O)N3CCCCCC3)cc2)cc1OC	-22.1%	25.3%	11.2%	9.6%	nt	-3.0%	-28.0%	1.6%
COCCN(C(=O)CCC(=O)Nc1cccnc1)C(C(=O)NC1CCCCC1)c1ccccc1 (centres undefined)	-1.6%	-0.3%	-9.7%	3.8%	8.5%	3.2%	8.9%	3.3%
COc1ccc(CNC(=O)/C=C/c2cc3c(cc2Br)OCO3)cc1	?	1.8%	2.7%	15.1%	-0.6%	-8.6%	-2.0%	-4.2%
CCN1CCN(CCCNC(=O)C(NC(=O)C2CCC(C)CC2)C(C)C)CC1 (centres undefined)	-1.7%	2.9%	-7.5%	-6.8%	nt	nt	nt	-0.7%
Cc1ccc(-c2nc3ccccn3c2Nc2ccc3c(c2)OCCO3)o1	-1.9%	nt	nt	-0.9%[46.1 µM]	nt	24.4%[46.1 µM]	-8.8%	-14.3%
Cc1cccc2cc(C(c3nnnn3CC3CCCO3)N3CCCc4ccccc43)c(=O)[nH]c12 (centres undefined)	20.4%	-0.5%	0.0%	?	-1.2%	-7.9%	-6.0%	-1.6%
Cc1cccc2cc(COC(=O)c3cccnc3)c(=O)[nH]c12	1.9%	-1.9%	-11.6%	-9.4%	3.7%	10.1%	-6.6%	1.2%
CCN(CC(=O)Nc1c(F)cccc1F)C(=O)c1cc(-c2cccs2)nn1-c1ccccc1	nt	-4.9%	nt	1.1%	-8.6%	-10.8%[46.1 µM]	?	nt
O=C1c2ccccc2C(=O)N1c1ccc(S(=O)(=O)N2CCN(c3ccccc3)CC2)cc1	?	-1.8%	8.2%	11.6%	-13.4%	17.2%	-16.4%	3.2%
O=C(CN1C(=O)c2ccccc2C1=O)Nc1ccccc1F	-0.7%	-4.4%	-6.6%	?	8.6%	9.9%	-11.2%	0.1%
COc1ccc(NC(=O)N2CCC3(CC2)OCCO3)c(OC)c1	nt	0.3%	0.8%	nt	4.5%	nt	?	nt
COc1cc(NC(=O)CN2C(=O)c3ccccc3Sc3ccc(C(=O)N4CCCC4)cc32)cc(OC)c1	?	nt	nt	nt	nt	?	-9.3%	-7.6%
O=C(N/N=C/c1cccc(F)c1)c1c(O)c2ccccc2[nH]c1=O	-13.1%	-47.9%	-2.7%	1.1%	-10.0%	3.0%	4.6%	-2.9%
